HT1080 cytotoxicity: HT1080 cell viability loss – fluorescence readout (AID 620); cytotoxicity, % at 10 µM, or EC50 in µM where a hit was titrated; 87,000 compounds, 0.42% hits; HT1080 viability, fluorescence; higher % means a stronger effect; in the data active = cytotoxicity above about 50%;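 note: cells exposed to compound overnight then 4 h with Alamar Blue; 0% = vehicle DMSO and 100% = killing control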
PMK inhibit: blocks S. pneumoniae phosphomevalonate kinase | purified PMK, PK/LDH-coupled NADH absorbance 340 nm | inhibition, % at 10 µM | 65,000 compounds, 0.49% hits;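 active = top-ranked compounds by inhibition in the single 10 µM screen, taking a fixed number of the strongest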;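 note: 0% = full reaction with DMSO carrier and 100% = background rate without enzyme reaction; no value below 0 was filed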
DPM-DC inhibit: inhibitors of Streptococcus pneumoniae diphosphomevalonate decarboxylase; purified DPM-DC, PK/LDH coupled NADH fluorescence; calls only at 10 µM; 65,000 compounds, 0.49% hits; AID 556;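 active = the 320 compounds with the highest percent inhibition in the single-dose primary screen, excluding strongly autofluorescent ones, cut at about 32% in these data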;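 note: kinetic rate of NADH fluorescence loss reporting ADP formed by the decarboxylase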
Bfl-1 inhibitors: displacement of Bid BH3 peptide from Bfl-1 – biochemical, fluorescence polarization, FITC-Bid, mouse, primary screen (AID 432); FITC-Bid BH3 peptide fluorescence polarization displacement; higher % means a stronger effect; one-dose displacement, % at 20 µM; IC50 in µM for titrated hits; 64,000 compounds, 0.02% hits; in the data active = a potency from the dose series; inactive = the rest, 99 in 100 with displacement below about 15%; note: strong numbers were not always called active
LYP phosphatase: LYP phosphatase inhibitors, primary screen, biochemical, DiFMUP fluorescence, recombinant catalytic domain, 10 µM (AID 606) | recombinant LYP catalytic domain, DiFMUP fluorescence; higher % means a stronger effect | inhibition, % at 10 µM; hits with a dose series show IC50 in µM | 52,000 tested, under 10 active;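 active = IC50 under 40 µM in the dose-response test; inactive = IC50 of 40 µM or more, or never dose-tested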
PMK inhibit pilot replicates: also measured in PMK inhibit; calls as there; inhibition, %; measured here: pilot screen replicates
DPM-DC inhibit pilot screen %: further read-out of DPM-DC inhibit, marked with its call; inhibition, %; measured here: pilot screen trials
* = called active by the depositor; i = inactive; . = no result given. Not all compounds are listed (hit frequency here may not be typical).

| item | structure | HT1080 cytotoxicity | PMK inhibit | PMK inhibit pilot replicates | DPM-DC inhibit |
| --- | --- | --- | --- | --- | --- |
| 1 | O=C(O)/C=C/c1ccc(O)c(O)c1 | 5.2% | 0.0 | 3.5 | i |
| 2 | c1ccc(-c2n[nH]c3ccccc23)cc1 | 36.8% | 15.0 | 2.5 | i |
| 3 | Cn1cccc1-c1cc(C(=O)O)[nH]n1 | -10.7% | 5.0 | 2.5 | i |
| 4 | COc1cc(C(=O)Nc2cc(-c3ccccc3)[nH]n2)cc(OC)c1OC | -2.8% | 4.0 | 0.0 | i |
| 5 | COc1ccc(-c2[nH]nc3oc(=O)cc(C)c23)cc1 | -6.2% | 3.0 | . | . |
| 6 | CCOC(=O)N1CCN(Cc2ccccc2Cl)CC1 | -16.8% | 0.0 | . | i |
| 7 | COc1ccc(CN2CCN(C(=O)CC(C)C)CC2)cc1OC | -6.5% | 0.0 | . | i |
| 8 | COC1CCCCC1Nc1cc(C)ccc1C (centres undefined) | -10.4% | 8.0 | . | i |
| 9 | Cc1ccc(Nc2cc(C)nn2-c2nc(C)cc(=O)[nH]2)cc1 | 65.9%* | 11.0 | . | i |
| 10 | CCOc1ccc(OCCCCN(C)C)cc1 | 6.0% | 15.0 | 2.0 | i |
| 11 | Cn1ncc2c1ncn1nc(CCc3ccccc3)nc21 | 12.0% | 0.0 | . | i |
| 12 | C=C(CC)C(=O)c1ccc(OCC(=O)O)c(Cl)c1Cl | 16.0% | 5.0 | 4.0 | i |

| item | DPM-DC inhibit pilot screen % | Bfl-1 inhibitors | LYP phosphatase |
| --- | --- | --- | --- |
| 1 | 2.0 | 3.7% | 12.2% |
| 2 | 0.0 | 3.3% | 10.1% |
| 3 | 5.0 | 0.7% | 4.7% |
| 4 | 0.0 | -0.1% | 99.9% |
| 5 | . | 3.2% | . |
| 6 | . | -1.2% | -5.0% |
| 7 | . | 7.3% | . |
| 8 | . | -1.2% | -8.4% |
| 9 | . | 1.3% | 1.4% |
| 10 | 0.0 | -7.5% | 14.7% |
| 11 | . | -6.2% | -6.4% |
| 12 | 1.0 | 3.9% | 21.0% |

By substructure: the compounds so far with an aryl methoxy group
| item | structure | HT1080 cytotoxicity | PMK inhibit | PMK inhibit pilot replicates | DPM-DC inhibit |
| --- | --- | --- | --- | --- | --- |
| 4 | COc1cc(C(=O)Nc2cc(-c3ccccc3)[nH]n2)cc(OC)c1OC | -2.8% | 4.0 | 0.0 | i |
| 5 | COc1ccc(-c2[nH]nc3oc(=O)cc(C)c23)cc1 | -6.2% | 3.0 | . | . |
| 7 | COc1ccc(CN2CCN(C(=O)CC(C)C)CC2)cc1OC | -6.5% | 0.0 | . | i |

| item | DPM-DC inhibit pilot screen % | Bfl-1 inhibitors | LYP phosphatase |
| --- | --- | --- | --- |
| 4 | 0.0 | -0.1% | 99.9% |
| 5 | . | 3.2% | . |
| 7 | . | 7.3% | . |

4 entries picked at random from the list so far, as already listed:
| item | structure | HT1080 cytotoxicity | PMK inhibit | PMK inhibit pilot replicates | DPM-DC inhibit |
| --- | --- | --- | --- | --- | --- |
| 1 | O=C(O)/C=C/c1ccc(O)c(O)c1 | 5.2% | 0.0 | 3.5 | i |
| 7 | COc1ccc(CN2CCN(C(=O)CC(C)C)CC2)cc1OC | -6.5% | 0.0 | . | i |
| 6 | CCOC(=O)N1CCN(Cc2ccccc2Cl)CC1 | -16.8% | 0.0 | . | i |
| 5 | COc1ccc(-c2[nH]nc3oc(=O)cc(C)c23)cc1 | -6.2% | 3.0 | . | . |

| item | DPM-DC inhibit pilot screen % | Bfl-1 inhibitors | LYP phosphatase |
| --- | --- | --- | --- |
| 1 | 2.0 | 3.7% | 12.2% |
| 7 | . | 7.3% | . |
| 6 | . | -1.2% | -5.0% |
| 5 | . | 3.2% | . |
